Assay outcomes from PubChem BioAssay.
AmpC inh no det – Promiscuous and Specific Inhibitors of AmpC Beta-Lactamase (assay without detergent); P00811; AmpC nitrocefin hydrolysis, absorbance 480 nm, no detergent; potencies from a single point are estimates; Potency, µM (highest dose often 28.7 µM), for inactives: at the top dose activity change, negative = inhibition; hit rate 1.8% among 71,000; active = falling curve, for most hits resting on a single point; inconclusive = weak or doubtful change; inactive = flat or rising curve; further: % of control where 0% means no effect; about half of the hits show no inhibition at the top dose; a quarter of the inactives give rising signals
Target sequence (P00811 whole entry, looked up): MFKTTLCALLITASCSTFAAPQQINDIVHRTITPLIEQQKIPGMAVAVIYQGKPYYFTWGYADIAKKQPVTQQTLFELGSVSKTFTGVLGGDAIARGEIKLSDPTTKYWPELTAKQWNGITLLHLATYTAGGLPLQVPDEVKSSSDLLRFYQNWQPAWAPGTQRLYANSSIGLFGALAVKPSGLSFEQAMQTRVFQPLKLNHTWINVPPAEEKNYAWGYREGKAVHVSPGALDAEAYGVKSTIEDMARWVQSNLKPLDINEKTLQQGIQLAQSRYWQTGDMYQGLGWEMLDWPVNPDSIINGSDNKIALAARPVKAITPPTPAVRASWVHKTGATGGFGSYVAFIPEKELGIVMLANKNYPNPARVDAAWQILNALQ
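AmpC, 20 mM phosphate pH 7.0; 15 min cpd preinc, RT; start with nitrocefin (800 uM stock); A480 kinetic read, 20 s intervals, 4 min. No-enzyme wells = negative control.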
The depositor's hits bear a star; ? = inconclusive; [ ] = dose if it differs, or a comment. Potency means the concentration at half of the fitted maximal effect. Not all compounds are listed. The share of hits here may be higher or lower than overall.

compound,AmpC inh no det
CC(=O)Nc1ccc(S(=O)(=O)NC(C(=O)O)C2=CCC=CC2)cc1 (stereo not drawn),-2%
O=C(C1CC(c2ccc(F)cc2)=NO1)N1CCCCC1 (stereo not drawn),1%
CN(Cc1ccccc1)S(=O)(=O)c1ccc(NS(C)(=O)=O)cc1,3%
O=c1[nH]c(C2CCCN(S(=O)(=O)c3ccccc3)C2)nc2c1nnn2Cc1ccccc1 (stereo not drawn),28%
CCc1ccc(-c2cn(-c3nc(C)cc(C)n3)c(=N)o2)cc1,19%
CC1(C)NC(=O)N(CCOc2cccc(Oc3ccccc3)c2)C1=O,64%
COc1ccc(NC(=O)CSc2nc3ccccc3c(=O)n2-c2ccc3c(c2)OCO3)c(OC)c1,40%
CCCCCCCCCC(=O)N[C@@H](CN1CCOCC1)[C@@H](O)c1ccccc1,124%

An excerpt from above in order of molar mass, largest number first:
compound,AmpC inh no det
CCCCCCCCCC(=O)N[C@@H](CN1CCOCC1)[C@@H](O)c1ccccc1,124%
CC(=O)Nc1ccc(S(=O)(=O)NC(C(=O)O)C2=CCC=CC2)cc1 (stereo not drawn),-2%
CC1(C)NC(=O)N(CCOc2cccc(Oc3ccccc3)c2)C1=O,64%

Next section.
compound,AmpC inh no det
O=c1c(-c2ccc(F)c(F)c2)nc2cncnc2n1-c1ccccc1,12%
Cn1c(=O)c(-c2cc(F)cc(F)c2)nc2cnc(N3CCNCC3)nc21,43%
CNc1nc(C)c(C#N)c(-c2ccccc2)c1C(C)=O,0%
CN(C)CCN(C)CCc1ccc(Cl)c(Cl)c1,1%
CN(C)c1nc(C(=O)OCCO)nc(N(C)C)n1,-8%
COc1ccc(Cn2c(CCC(=O)O)nc3cccnc32)cc1,-1%
Cc1ccc2ccc(S(=O)(=O)n3nc(C)cc3C)cc2c1,15%
CCCC(=O)N1CCN(c2ccc(NC(=O)c3ccccc3)cc2)CC1,38%
COc1ccc(C(=O)N2CCCC(c3nc(-c4ccc(OC)c(OC)c4)no3)C2)c(OC)c1 (stereo not drawn),146%
O=S(=O)(Nc1ccc(C(F)(F)F)cc1)c1cnc[nH]1,11%
COc1ccc(-c2noc(CSc3nnc(CCc4ccccc4)n3-c3ccccc3)n2)cc1OC,86%
COc1ccc(OCC(=O)Nc2ccc3c(c2)nc(CCN2CCOCC2)n3C)cc1,-20%
Cc1csc(OCc2ccc(C#N)cc2)n1,-17%
Cc1cccc(OCCCC(=O)O)c1C,-10%
CC(C)C(=O)N1CCN(c2ccccc2NC(=O)Cc2ccc(Cl)cc2)CC1,50%
O=C(NCCCN1CCOCC1)c1cc(-c2ccc(O)cc2)on1,6%

4 entries picked at random from the list so far, as already listed:
compound,AmpC inh no det
COc1ccc(OCC(=O)Nc2ccc3c(c2)nc(CCN2CCOCC2)n3C)cc1,-20%
COc1ccc(-c2noc(CSc3nnc(CCc4ccccc4)n3-c3ccccc3)n2)cc1OC,86%
COc1ccc(C(=O)N2CCCC(c3nc(-c4ccc(OC)c(OC)c4)no3)C2)c(OC)c1 (stereo not drawn),146%
Cc1cccc(OCCCC(=O)O)c1C,-10%

The results go on:
compound,AmpC inh no det
O=S(=O)(Cc1ccccc1)N1CCC(N2CCN(c3ccccc3)CC2)CC1,11%
CN(C)CC[C@H](c1ccc(Cl)cc1)c1ccccn1,3%[12.8 µM]
CNC(=O)[C@H](C)[C@@H]1C[C@@]1(C)[C@@H](NC(=O)OCc1ccccc1)c1ccccc1,92%
C#CCOC(=O)c1ccccc1C(=O)N(CC)CC,5%
Cc1ccc(C(C(=O)NC(C)(C)C)N(C(=O)c2csnn2)c2cccc(F)c2)o1 (stereo not drawn),-9%
O=C(CN1CCN(S(=O)(=O)c2ccc(Cl)cc2)CC1)Nc1ccc2c(c1)OCO2,59%
COC(=O)CN(c1ccc(C)cc1)S(=O)(=O)c1ccc2c(c1)n(C)c(=O)c(=O)n2C,9%
O=C(NC(=O)N1CCN(c2cccc(Cl)c2)CC1)c1ccccc1,21%
CCN=C1SCC(=O)N1c1ccc(OC)cc1,4%
CC(C)CCNC(=O)NC(=O)CSc1nnc2ccccn12,1%
COc1ccc(NC(=O)c2ccc3c(c2)n(C)c(=O)n3C)cc1,18%
CC(C)Oc1ccc(C(=O)Nc2ccc(N(C)C)cc2)cc1,7%
CCOc1ccccc1-n1c(O)c(C=NCc2ccc3c(c2)OCO3)c(=O)[nH]c1=O,-4%
Cc1cc(N2CCN(c3nnnn3-c3ccccc3)CC2)n2ncnc2n1,18%
CCOC(=O)CN(C(=O)Cn1nnc2ccccc21)C(C(=O)NCCOC)c1ccccc1C (stereo not drawn),52%
O=C(COc1ccc(F)cc1Br)N1CCc2ccccc21,-12%
Cn1cccc1Cc1nnc(SCC(N)=O)n1CCc1ccccc1,63%
COc1ccc(Cl)cc1C(=O)N1CCN=C1SC,8%
CCN1CCCC1Cn1c(-c2ccccc2)nc2c(N3CCOCC3)nc(C)nc21 (stereo not drawn),48%
O=S(=O)(NC1CCCCC1)c1ccc(Cl)s1,-15%
COC(=O)N1CCC2(CCCN(Cc3cc(C(F)(F)F)cc(C(F)(F)F)c3)C2)CC1,16%
c1ccc(Cn2nnc3c(N4CCCC4)ncnc32)cc1,35%
CCOc1ccc2nc(NC3=NCN(CC4CCCO4)CN3)nc(C)c2c1 (stereo not drawn),-8%
COc1ccc(OC)c(NC(=O)c2cc3ccccc3o2)c1,2%

For convenience, some entries already given.
compound,AmpC inh no det
Cn1cccc1Cc1nnc(SCC(N)=O)n1CCc1ccccc1,63%
COc1ccc(Cl)cc1C(=O)N1CCN=C1SC,8%

(cont.)
compound,AmpC inh no det
O=C(c1ccco1)N1CCN(C(=O)C2(S(=O)(=O)c3ccc(Cl)cc3)CC2)CC1,-2%
Cc1sc2c(c1C)c(=O)n(-c1ccccc1)c1nncn21,-6%
O=C(Nc1nnc(-c2ccccc2Cl)o1)c1cccnc1,65%
C=CCn1c(N)c(C(=O)N2CCN(C)CC2)sc1=S,8%
CCN(CC)COC(=S)S,2%[5.75 µM]
O=C(CSc1ncnc2c1cnn2Cc1ccccc1)Nc1ccc2c(c1)OCCO2,-6%
CCN(CC)CCNC(=O)c1ccc2c(c1)ncn2C1CCCCC1,12%
CCOc1ccc(N2CC(C(=O)NCc3cccc(C)c3)CC2=O)cc1 (stereo not drawn),32%
CC(Cc1ccccc1)C(=O)NCCc1c[nH]c2ccccc12 (stereo not drawn),7%
Cn1cccc1Cc1nnc(SCC(=O)NCc2ccco2)n1CCc1ccccc1,87%
CCOc1ccc(N2C(=O)CC(N3CCC(NC(=O)Nc4ccccc4)CC3)C2=O)cc1 (stereo not drawn),50%
O=C1CC(c2ccco2)CC(O)=C1C=NCC1CCNCC1 (stereo not drawn),43%
O=C(C(c1ccccc1)c1ccccc1)N1CCOCC1,14%
CCOC(=O)c1cc2c(=O)n3cccc(C)c3nc2n(Cc2ccccc2Cl)c1=N,7%
CC(=O)c1ccc(NC2c3ncccc3C(=O)N2Cc2ccc(F)cc2)cc1 (stereo not drawn),29%
COC(=O)c1ccc(C(NC(=O)OCc2ccccc2)/C(=C/[C@@H](C)C(=O)NCc2nc3ccccc3n2C)c2cccnc2)cc1 (stereo partly drawn),124%
COc1cc(N2CCOCC2)ncn1,-10%
O=C1C2C3CCCC3=C3CCCC3C2C(=O)N1c1cccc(Cl)c1 (stereo not drawn),-1%
Cc1ccccc1C1CC(=O)NC2=C1C(=O)CCC2 (stereo not drawn),-11%
OCCN(CC#CC(O)(c1ccccc1)C1CCCC1)CCO (stereo not drawn),24%
O=c1c2ccccc2nnn1CSc1nnc(COc2ccc(Cl)cc2)n1Cc1ccco1,46%
CCOc1ccc(OCC)c(NC(=O)CN2CCC(NC(=O)c3cccc(F)c3)CC2)c1,67%
O=C(Nc1cccc(F)c1)N1CC[C@@]2(CCCN(C(=O)c3csnn3)C2)C1,1%
Cc1ccc(-n2c3c(cc(C(=O)NC4CCSC4=O)c2=O)C(=O)CC(C)(C)C3)cc1 (stereo not drawn),66%
O=C(CSc1nnc(Cc2ccccc2)o1)N1CCCc2ccccc21,28%
CCOC(=O)c1[nH]c2ccc(Br)cc2c1NC(=O)CCN1CCCCC1,19%
NC(=O)[C@@H]1CCCNC1,-2%[5.75 µM]
Cc1ccc(C2c3c(oc4cc(C)c(C)cc4c3=O)C(=O)N2CCCN2CCOCC2)cc1 (stereo not drawn),145%
O=C(NCc1cccnc1)C1CCN(S(=O)(=O)c2cccnc2)CC1,3%
CN(C)c1ccc(C2OC(=O)C3(CCCC3)C(=O)C2(C)C)cc1 (stereo not drawn),-12%
CN(C)CCC(c1ccccc1)c1ccccn1 (stereo not drawn),0%
O=C(O)c1cc(-c2ccccn2)n[nH]1,-6%
C=CCn1c(N2CCCCCC2)nc2c1c(=O)n(C)c(=O)n2C,29%
COc1ccc(/C(O)=C2/C(=O)C(=O)N(CCN(C)C)C2c2ccc(C)cc2)cc1Cl (stereo not drawn),12%
CC1=CS/C(=C(/C#N)C(=O)N2CCCCC2)N1c1ccccc1,5%
O=C(Cn1cc(C(=O)COc2ccccc2)c2ccccc21)NCc1ccco1,-17%
CCCCCCN(C(=O)CCCCCN1C(=O)NC(c2ccc(-c3ccccc3)cc2)C(C(=O)OCc2ccccc2)=C1C)C(C)C(=O)NCCCC (stereo not drawn),8%
O=C(Nc1ccc2c(c1)OCO2)C1CCN(S(=O)(=O)c2cccs2)CC1,?
CS(=O)(=O)N1CCc2cc(C(=O)O)ccc21,-6%
CC(C)(C)NC(=O)C(Cc1ccccc1)NS(=O)(=O)c1ccc2c(c1)CCC(=O)N2 (stereo not drawn),-6%
N#CC1=C2SCN(Cc3ccco3)CN2C(=O)CC1c1c(F)cccc1Cl (stereo not drawn),4µM*[single pt active]
CCN1C[C@@]2(COC)[C@H](O)C[C@H](OC)[C@@]34[C@@H]5C[C@@]6(O)[C@H](OC(=O)c7ccccc7)[C@H]5[C@@](OC(C)=O)([C@H]([C@@H](OC)[C@H]23)[C@H]14)[C@H](O)[C@@H]6OC,7%
Cn1c(O)c(C=NCc2cccs2)c(=O)n(C)c1=O,-4%
COc1ccc(C(C(=O)NC2CCCC2)N2CCc3ccccc32)cc1 (stereo not drawn),0%
COc1ccccc1Oc1ccc(S(=O)(=O)N2CCCC2)cc1,15%
CCOc1ccccc1N(C(=O)CNC(=O)c1ccco1)C(C(=O)NC1CCCC1)c1cccnc1 (stereo not drawn),42%
CC(=O)N1C2(C=CC1(C)C(=O)NCc1cc(F)cc(C(F)(F)F)c1)CCCCC2 (stereo not drawn),47%
C=CCn1c(CCNC(=O)c2ccccc2F)nnc1SCC(=O)Nc1nc(C)cs1,32%
CCC(=O)N1CCc2cc(S(=O)(=O)NCCN3CCCCC3CC)ccc21 (stereo not drawn),-7%
C=CCOc1cccc(C2/C(=C(/O)c3ccc(C)cc3)C(=O)C(=O)N2CCN2CCOCC2)c1 (stereo not drawn),2%
O=C1C(=O)N(CCCn2ccnc2)C(c2cccnc2)/C1=C(/O)c1ccc(Cl)cc1 (stereo not drawn),12%
O=C(CCC(=O)c1cccs1)Nc1ccccc1F,6%
O=C(CSc1nnc(-c2ccccc2)n1Cc1ccco1)Nc1ccc2c(c1)OCCO2,19%
COC(=O)[C@H]1C[C@@H]1[C@H](NC(=O)c1ccccc1)c1ccccc1,-4%
CCn1c(N)c(C(=O)N2CCOCC2)sc1=S,-1%
COCCn1nnnc1CN1C2CCCC1CC(NC(C)=O)C2 (stereo not drawn),4%

Continued.
compound,AmpC inh no det
O=c1oc2ccccc2n1CSC1=NCCS1,-20%
COc1ccc(Oc2ncc3ncc(=O)n(CCC#N)c3n2)cc1,-1%
CN1CCN(C(=O)N2c3ccccc3C=Cc3ccccc32)CC1,30%
C=CCSc1nc2ccccc2c(=O)[nH]1,-11%
CC(Nc1nc(N2CCN(S(C)(=O)=O)CC2)nc2ccccc12)c1ccccc1 (stereo not drawn),37%
CC(C)(C)OC(=O)N1CC2Cc3[nH]c(=O)ccc3C(C2)C1 (stereo not drawn),4%
CN(C)c1ccc(-c2nc(NC3CCNCC3)c3ccccc3n2)cc1,6%
Cc1cc(S(=O)(=O)N(Cc2ccc3c(c2)OCO3)CC2CCCO2)ccc1-n1cnnn1 (stereo not drawn),44%
Cc1cccc(-n2ccnc2SCC(=O)Nc2ccc3c(c2)OCCO3)c1,2%
CCN(CC)C(=O)C1CCCN(Cc2ccc(F)c(F)c2)C1 (stereo not drawn),14%
COc1ccccc1C1CC(c2ccc(F)cc2)Nc2ncnn21 (stereo not drawn),29%
CCc1cc2c(NCC3CCCO3)ncnc2s1 (stereo not drawn),1%
O=C(c1ccc(F)cc1)c1cc2ccccc2o1,-16%
COc1ccccc1-c1nccc(N2CCN(C)CC2)n1,33%
CCOc1ccccc1N1CCN(C(=O)Nc2cccc(Cl)c2)CC1,36%
